PrP 5UTR inh – suppresses PrP 5' UTR mRNA reporter expression | cell-based PrP 5' UTR mRNA reporter, plate reader | inhibition, % (no concentration beside the values) | 340,000 compounds, 0.35% hits | AID 488862;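 active means every replicate at 50% or more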;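 further: 0 = median of the neutral control wells; tested in H4 reporter cells; numbers are from one replicate; inactives centre near -14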
Bead autofluor – flagged as autofluorescent in microsphere protease counterscreen; fluorescence intensity (test concentration not listed); 360,000 compounds, 3.1% hits; compound autofluorescence counterscreen, microsphere flow cytometry; hits give high values;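 active means at least 3 SD above the mean of all compounds, about 16000 in these data; inconclusive means too few beads counted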;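 further: 100 nL of 1 mM stock went into each well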
RN4220 kill – S. aureus RN4220 growth inhibition. 330,000 compounds, 0.33% hits. OD600, 16 h. AID 1259311. inhibition, % (concentration not given with the values);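 active means z-score of -3 or lower and OD600 up to 0.18 on both plates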;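 further: plate controls were untreated cells for no effect and reference antibiotic for full effect; stock transfer was 100 nL into about 80 µL; one replicate is shown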
ugtP null kill – compounds lethal to S. aureus RN4220 ugtP deletion mutant | OD600 growth, 16 h; some inactives read as strong as hits | growth inhibition, % (no concentration beside the values) | 330,000 compounds, 0.54% hits;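 active means z-score under -3 and OD600 up to 0.15 on both plates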;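 further: plate controls were untreated wells for no effect and antibiotic for full effect; wells of about 80 µL received 100 nL stock; the first replicate is given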
BJeLR viability – BJeLR cell viability loss; BJeLR (HRASV12) viability, CellTiter-Glo ATP luminescence, 48 h; reference of the scale not given here; inhibition, % (test concentration not listed); 300,000 compounds, 0.17% hits; AID 1554;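 active means replicate mean above 50%; inconclusive means above 50% but judged a plate artefact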;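 further: 50 nL library stock added to about 25 µL; numbers are from one replicate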
Mtb hypoxia rep – reduces hypoxia-regulated biosensor signal in M. tuberculosis; M. tuberculosis hypoxia-regulated fluorescent reporter, fluorescence; fluorescence inhibition, % (concentration not given with the values); 300,000 compounds, 0.1% hits;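 active means 35 to 45% if threefold the growth effect, above 45% if 1.5-fold the growth effect; inactive means the rest, general growth blockers included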;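 further: wells of about 50 µL received 100 nL stock; 0% = vehicle wells and 100% = reference inhibitor wells; whole bacteria with a GFP reporter of the hypoxia response; strong numbers were not always called active; many hits fall short of the cut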
Mtb hypoxia rep growth – further read-out of Mtb hypoxia rep, marked with its call; growth inhibition, %; measured here: M. tuberculosis growth (absorbance);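 0% = vehicle and 100% = reference antibiotic; read after six days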
The depositor's hits bear a star; u = inconclusive; x = not tested or not shown.

SMILES | PrP 5UTR inh | Bead autofluor | RN4220 kill | ugtP null kill | BJeLR viability | Mtb hypoxia rep | Mtb hypoxia rep growth
CCOc1ccccc1N1CCN(C(=S)Nc2ccc(S(=O)(=O)Nc3ncccn3)cc2)CC1 | -12.9 | 5361 | -1.6 | -2.2 | -4.1 | 2.6 | 13.3
c1cncc(-c2nc(NCC3COc4ccccc4O3)c3ccccc3n2)c1 (stereo unspecified) | 8.6 | 3776 | 2.1 | -10.2 | 0.0 | x | x
CN(C)C(=O)N1CCC(C(=O)NCc2ccc(F)cc2)CC1 | -0.4 | 4176 | 0.6 | 2.2 | 22.9 | -2.7 | -6.3
CC(C)C(=O)N1CCN(c2ccc(NC(=O)COc3ccccc3[N+](=O)[O-])cc2)CC1 | -17.0 | 3512 | 5.9 | 4.3 | 12.3 | 5.2 | 3.4
COC(=O)c1cc(N2CCNCC2)nc2ccccc12 | -16.0 | 5166 | 3.7 | 3.5 | 5.9 | 16.1 | 11.7
Cc1ncc([N+](=O)[O-])n1CCOC(=O)NC(NCc1ccccc1)C(Cl)(Cl)Cl (stereo unspecified) | -0.5 | 2856 | -21.4 | -3.9 | -6.5 | 20.8 | -16.8
CC(=O)Nc1cc2c(cc1Br)OCCO2 | -11.1 | 2019 | 4.6 | -0.6 | 7.9 | x | x
CCOc1ccc(OCC)c(C2C(C#N)=C(N)N(c3cccnc3)C3=C2C(=O)CC(C)(C)C3)c1 (stereo unspecified) | -15.9 | 4792 | -3.3 | 1.0 | -10.7 | x | x
O=C(NCCCn1ccnc1)/C(=C/c1ccccc1)NC(=O)c1ccccc1 | -4.6 | 4222 | 1.8 | 3.2 | -5.1 | 11.0 | -1.2
O=C(NCCCN1CCCCCC1)c1ccc2c(Cl)c3c(nc2c1)CCCC3 | -12.5 | 2963 | 2.5 | 5.4 | -2.9 | 5.5 | 6.9
Cc1ccc(Nc2cc(=O)[nH]c(=O)[nH]2)c(C)c1 | -16.7 | 2689 | -18.3 | -3.9 | -2.4 | -1.0 | 0.5
CCOc1ccccc1N1CC(C(=O)Nc2cccc(S(=O)(=O)N3CCCCC3)c2)CC1=O (stereo unspecified) | -13.6 | 4460 | -3.5 | 1.9 | -7.2 | 7.7 | 10.8
Cc1cc(C)cc(NC(=O)CN(C)CC(=O)N(CC(C)C)c2c(N)n(CC(C)C)c(=O)[nH]c2=O)c1 | -20.9 | 4972 | 8.0 | 5.0 | x | 8.4 | 5.6
COc1ccc(/C=C(\NC(=O)c2ccccc2)C(=O)NN=Cc2ccncc2)cc1 | x | x | 5.7 | 3.8 | x | 18.3 | 11.5
CC(=NNC(=O)c1cc(C(C)C)[nH]n1)c1cccs1 | x | x | 3.3 | -1.8 | x | 8.3 | 15.7
O=c1cc(-c2ccsc2)oc2cc(-c3ccc4c(c3)OCO4)ccc12 | -3.9 | 4151 | 17.5 | -13.4 | x | 13.5 | 5.4
CS(=O)(=O)c1ccc(C(=O)Nc2cccc(-c3nc4ccccc4[nH]3)c2)cc1 | -11.5 | 5590 | -0.4 | 1.4 | 0.5 | -5.6 | -0.4
O=C(OCC(=O)N1CCCCCC1)c1cnc(Cl)c(Cl)c1 | -10.5 | 6356 | 3.2 | 0.9 | x | 7.3 | 3.0
COc1cc(/C=N/NC(=O)c2ccncc2)ccc1OCc1cnc(Cl)s1 | -71.8 | 3225 | x | x | -5.8 | x | x
CCOC(=O)c1cccnc1SCC(=O)Nc1ccc(C)cc1 | -11.0 | 3938 | 1.1 | 8.1 | 8.1 | 5.4 | 2.9
CC1Cc2ccccc2N1CC(=O)NC(=O)NC1CCCCC1 (stereo unspecified) | 11.1 | 4077 | 8.8 | 14.6 | -1.0 | 6.6 | 12.0
OCCCNc1ncnc2[nH]ncc12 | -4.8 | 4584 | 3.0 | 1.3 | x | 20.6 | 6.6
CCCCn1c(N)c(N(CC(C)C)C(=O)CCNC(=O)c2ccccc2Cl)c(=O)[nH]c1=O | -4.4 | u | 1.3 | 5.1 | 4.9 | -2.0 | 9.8
CC(NC(=O)C1CCN(C(=O)Nc2ccccc2)CC1)c1ccc(Cl)cc1 (stereo unspecified) | -0.6 | 7797 | 0.4 | 3.0 | x | 2.8 | 0.1

Compound profiles, from the list above:
COc1cc(/C=N/NC(=O)c2ccncc2)ccc1OCc1cnc(Cl)s1 is entered as PrP 5UTR inh: -71.8; Bead autofluor: 3225; RN4220 kill: x; ugtP null kill: x; BJeLR viability: -5.8; Mtb hypoxia rep: x; Mtb hypoxia rep growth: x
Cc1cc(C)cc(NC(=O)CN(C)CC(=O)N(CC(C)C)c2c(N)n(CC(C)C)c(=O)[nH]c2=O)c1 is entered as PrP 5UTR inh: -20.9; Bead autofluor: 4972; RN4220 kill: 8.0; ugtP null kill: 5.0; BJeLR viability: x; Mtb hypoxia rep: 8.4; Mtb hypoxia rep growth: 5.6
CC1Cc2ccccc2N1CC(=O)NC(=O)NC1CCCCC1 (stereo unspecified) is entered as PrP 5UTR inh: 11.1; Bead autofluor: 4077; RN4220 kill: 8.8; ugtP null kill: 14.6; BJeLR viability: -1.0; Mtb hypoxia rep: 6.6; Mtb hypoxia rep growth: 12.0

(next part)
SMILES | PrP 5UTR inh | Bead autofluor | RN4220 kill | ugtP null kill | BJeLR viability | Mtb hypoxia rep | Mtb hypoxia rep growth
CC12CC[C@H]3[C@@H](CCC4(O)C[C@H](O)CCC34C=NNC(=O)c3ccccc3O)C1(O)CCC2C1=CC(=O)OC1 (stereo partly specified) | x | x | 2.7 | 10.4 | x | 0.3 | 2.1
CCOc1cc(NC(=O)CC(C)C)c(OCC)cc1NC(=O)CCn1nnc2ccccc21 | -59.2 | 21013* | 7.7 | -5.2 | 6.4 | 6.5 | 12.3
O=C(OCC(=O)N1CCc2ccccc21)c1ccc([N+](=O)[O-])o1 | -27.4 | 3687 | 8.3 | 8.3 | x | 21.0 | 23.4
COc1cc2cc(C(N)=O)c(N)nc2cc1OC | -42.0 | 3001 | -0.8 | -5.8 | 8.1 | -3.6 | 10.8
O=S(=O)(Cc1ccc(Cl)cc1)N1CCCC1 | -40.9 | 6190 | 0.3 | -3.2 | -7.7 | -1.1 | 10.2
CC(=NNc1ccccc1)c1cccc(N)c1 | x | x | 3.9 | -1.0 | x | 1.8 | -1.5
N#CNC(=Nc1ccccc1F)SCc1ccc(C(=O)O)cc1 | -11.5 | 4607 | 5.4 | 4.0 | -8.6 | 2.2 | -2.5
CSc1nc(Cl)cc(Nc2ccccc2N)n1 | -8.2 | 3272 | 4.9 | -4.5 | -6.0 | 1.1 | -1.1
O=[N+]([O-])c1ccccc1-c1ccc(C(=S)N2CCCC2)o1 | -62.5 | 4071 | 17.3 | 5.1 | 5.6 | -0.5 | 9.4
Cc1ccc(OCc2nnc(N)s2)cc1 | -25.1 | 2682 | 3.2 | -1.3 | -3.6 | -2.7 | 4.9
Cc1cc(=O)oc2cc(OCC(=O)N3CCN(C(C)c4ccccc4)CC3)c(Cl)cc12 (stereo unspecified) | -20.3 | 9160 | 1.6 | 5.8 | x | 6.8 | 6.2
Cc1cc(C)nc(NC(=O)c2c(-c3c(Cl)cccc3Cl)noc2C)n1 | 0.8 | 2609 | 4.0 | -0.1 | 3.3 | 6.9 | 6.8
Cc1onc(-c2ccccc2)c1C(=O)N/N=C/c1ccccc1OC(C)C | -14.4 | 5788 | x | x | -1.7 | x | x
COc1ccc(N=c2oc3ccc(OC)cc3cc2-c2nc3ccccc3[nH]2)cc1 | -107.8 | 3709 | -2.9 | -26.7 | -1.7 | 7.3 | 4.8
O=S(=O)(Nc1cccc(-n2cnnn2)c1)c1cnc(Cl)c(Cl)c1 | -15.6 | 5837 | 1.3 | 3.4 | -2.0 | 0.2 | 7.4
CC(=NNC(=O)C1CC1)c1ccc(C)cc1C | x | x | -1.2 | 7.4 | x | -0.3 | 16.8
CC(C)(O)c1nnn(-c2ccccc2)c1C(F)(F)F | -0.5 | 3841 | 5.9 | 16.8 | 7.9 | x | x
COc1ccc(S(=O)(=O)Nc2cccc3c2O[C@H](CN(C)Cc2ccc(-c4ccccc4)cc2)[C@@H](C)CN([C@H](C)CO)C3=O)cc1 | -23.4 | 3839 | -4.6 | 1.2 | x | 6.5 | 5.7
CCC1CN(C(=O)N2CCC(C(=O)NCc3cccc(OC)c3OC)CC2)c2cc(C)ccc2O1 (stereo unspecified) | -29.7 | 5457 | -1.2 | 2.1 | 6.1 | 11.1 | 7.1
COc1ccc(OC)c(NC(=O)Nc2cccc3ccccc23)c1 | -35.1 | 10017 | 4.0 | -11.4 | -14.1 | 12.3 | 4.6
CCCCC(NC(C)=O)c1nc2ccccc2n1CCC (stereo unspecified) | -28.9 | 3335 | 0.0 | 4.0 | 4.4 | 9.3 | 9.7
O=S(=O)(Nc1ncccn1)c1ccc(NC(=S)NCCc2ccc(Cl)cc2)cc1 | -31.1 | 2876 | 14.0 | 9.4 | 7.6 | 9.9 | 10.5
COc1cccc(NC(=O)Nc2nc(-c3ccc(OC)c(OC)c3)cs2)c1 | -27.2 | 4446 | x | x | 49.0 | x | x
CCOc1cc(C(=S)N2CCOCC2)ccc1OC(=O)c1cccc(C)c1 | -5.0 | 3997 | 5.4 | -4.5 | -11.2 | 6.3 | -5.0
CCOP(=O)(OCC)C(NC(=O)c1ccc(OC)cc1)C(Cl)(Cl)Cl (stereo unspecified) | -29.9 | 5574 | 2.7 | 6.1 | -3.7 | 7.8 | 2.6
CCOc1ccccc1Oc1c(C)oc2c(CN3CCN(C)CC3)c(O)ccc2c1=O | -18.8 | 11311 | 3.4 | 2.9 | x | 0.6 | 3.7
COc1ccc(C(=O)Nc2ccccc2C(=O)N(Cc2ccco2)C(C(N)=O)C(C)C)cc1 (stereo unspecified) | -27.8 | 22943* | -1.1 | -3.9 | -2.5 | -4.3 | -0.3
CCOC(=O)/C=C/C(=O)OCC(=O)N1CCN(C(=O)c2ccco2)CC1 | -15.4 | 6250 | 1.8 | 4.0 | -3.6 | 15.8 | 19.2
CCCCC(=O)NNC(=S)NCc1ccccc1 | -7.7 | 4590 | 2.8 | 9.0 | -2.5 | 11.8 | 19.2
Cn1c(SCC(=O)Nc2ccc(N3CCOCC3)cc2)nnc1-c1ccccc1F | -5.6 | 6561 | 0.5 | 12.4 | 4.2 | 1.0 | -2.3
O=C(NC1CC1)c1cccc(Br)c1 | -28.4 | 2323 | 3.1 | -6.5 | -1.5 | 4.3 | 7.1
CC(=O)c1cccc(NC(=O)c2cc(C(C)C)on2)c1 | -51.2 | 5513 | -12.2 | -2.6 | -0.2 | 15.9 | 8.5
O=C(N=Nc1c(O)[nH]c2ccccc12)c1ccco1 | -105.4 | 4683 | 5.8 | -2.7 | 7.6 | 6.6 | 8.4
Cc1cc(=O)[nH]c2c1cnn2Cc1ccccc1 | -13.8 | 2369 | -1.4 | 7.7 | 0.0 | x | x
CSc1nc2nccc(-c3ccc(Cl)cc3)n2n1 | 9.7 | 2518 | 3.0 | 8.5 | -10.0 | 10.0 | 3.3
CC(OC(=O)/C=C/c1cccc(C(F)(F)F)c1)C(=O)NC1CCCCC1C (stereo unspecified) | -24.2 | 6135 | 3.6 | -0.5 | -10.5 | 4.0 | -1.0
Cc1cc(NC(=O)CSCC(=O)N(C)Cc2cccc(Cl)c2)no1 | -21.3 | 4441 | 2.6 | 4.3 | -0.2 | 5.9 | 1.0
CCOC(=O)N1CCC(N2C(=O)c3ccccc3C2Nc2cc(Cl)c(OC)cc2OC)CC1 (stereo unspecified) | -29.6 | 5443 | 5.3 | 9.2 | 0.4 | -1.1 | -1.5
CCN(CC(=O)NCc1cccs1)C(=O)/C=C/c1cc(Br)ccc1OC(F)F | -0.4 | x | 1.5 | -2.3 | x | 6.3 | 5.3
CC(C)Nc1nnc(SCC(=O)/C=C2\N(C)c3ccccc3C2(C)C)s1 | -5.1 | 2569 | 0.0 | -3.2 | -0.8 | -7.3 | 4.0
COc1cccc(NC(=O)CN(C)CC(=O)NCc2ccc(F)cc2)c1 | -8.9 | 3515 | 2.1 | 1.3 | x | 1.6 | 5.2
O=C1CCC(=O)N1OCCCCOc1ccccc1 | -14.1 | 4219 | -3.3 | 10.6 | 0.8 | x | x
Cc1ccc(C(=O)N/C(=C\c2cccs2)C(=O)NCC2CCCO2)cc1C (stereo unspecified) | -19.2 | 2202 | 3.8 | 3.5 | -23.2 | -0.8 | 7.9

Assay outcomes (PubChem)
